Cruzain Triton – cruzain (T. cruzi) inhibition with detergent. purified cruzain, Z-FR-AMC fluorescence, 0.01% Triton. hit rate 0.43% among 200,000. Potency, µM, without a hit: max response, negative = inhibition, usual class: inhibitors. P25779; active means well fitted curve in the direction sought with a large enough effect; inconclusive means small, poorly fitted or top-dose-only effect, or another doubt; inactive means no such curve, though single readings can be large; an effect the other way counts as inactive or inconclusive;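 further: plate controls were neutral wells for no effect and buffer without enzyme for full effect; nearly all actives have a fitted effect of over 40% in size; top concentration of the series not given in the record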
Target sequence (P25779 123-467 limits assumed): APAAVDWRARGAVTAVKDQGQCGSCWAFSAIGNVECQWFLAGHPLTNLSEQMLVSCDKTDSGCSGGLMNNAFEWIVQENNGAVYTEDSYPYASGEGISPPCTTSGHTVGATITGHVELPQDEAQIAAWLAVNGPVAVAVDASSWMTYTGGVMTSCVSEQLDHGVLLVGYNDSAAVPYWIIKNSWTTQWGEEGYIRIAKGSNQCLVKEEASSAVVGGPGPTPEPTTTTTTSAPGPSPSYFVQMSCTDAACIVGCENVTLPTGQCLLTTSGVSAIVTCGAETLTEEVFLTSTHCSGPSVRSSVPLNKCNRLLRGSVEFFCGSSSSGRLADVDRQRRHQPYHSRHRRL
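Read-out: AMC fluorescence (360 nm excitation, 450 nm emission), four reads over 2 min, first-to-third difference used. Conditions: cruzain 1.5 nM, Z-FR-AMC 2 uM, pH 5.5 acetate, 5 mM DTT, 0.01% Triton X-100.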
NS1 inh – blocks influenza NS1 protein function; S. cerevisiae slowed by influenza A NS1, growth recovery by OD600; Potency, µM (highest dose often 46.1 µM), without a hit: at the highest dose activity, positive = more growth; hit rate 0.4% among 270,000; further: actives are rising curves; nearly all actives have a fitted effect of over 50% in size
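OD600 was taken as the measure of yeast growth restored by compound in an NS1-expressing S. cerevisiae strain. Cells had been washed out of glucose medium and diluted 1:100 into galactose -URA medium, pH 6.0.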
Marburg entry inh – Marburg virus entry inhibition; hit rate 1.8% among 300,000; Marburg virus pseudotyped entry inhibition, cell reporter; control for the full effect not named in the record; about a third of the inactives were read at about 46 µM; Potency, µM (titrated, usually from 37.8 µM), for inactives: at the top dose activity change, negative = inhibition, actives largely listed as inhibitors; active = well fitted inhibition curve with a large enough effect; inconclusive = small, poorly fitted or top-dose-only effect, or effect the other way; inactive = flat fitted curve, though single readings scatter; tested in HEK293 cells; about a fifth of its hits are not listed in these tables; further: on the % scale 0 is the no-effect control and ±100 the full control effect; luciferase read-out
RE007 growth inh – less growth of the S. pombe RE007 Vpr strain | S. pombe RE007 Vpr strain, BacTiter-Glo ATP luminescence, 24 h; control for the full effect not named in the record | Potency, µM (titrated, usually from 92.2 µM), for the others: at the highest dose activity change, negative = less growth | hit rate 0.21% among 360,000; active = well fitted falling curve with a large enough effect; inconclusive = small, poorly fitted or top-dose-only effect; inactive = no such curve, though single readings can be large or run the other way;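 further: on the % scale 0 is the no-effect control and ±100 the full control effect; nearly all actives have a fitted effect of over 50% in size; the assay follows cell death caused by Vpr and the record does not say whether a fall means rescue or toxicity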
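Fission yeast RE007 carrying one integrated HIV-1 vpr copy, seeded at OD 0.01 in PMG+AL medium with 23 nL pinned compound. Grown 24 h at 30 degrees; viability read by BacTiter-Glo luminescence after 5 min.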
2A StopGo – lowers the luciferase signal of an FMDV 2A StopGo reporter | human cells with a luciferase reporter of 2A StopGo recoding; control for the full effect not named in the record | Potency, µM (titrated, usually from 57.9 µM), for inactives: at the top dose signal change, negative = less light | hit rate 1.2% among 410,000; active = well fitted falling curve with a large enough effect; inconclusive = small, poorly fitted or top-dose-only effect; inactive = no such curve, though single readings can be large or run the other way; tested in HEK293T cells; further: on the % scale 0 is the no-effect control and ±100 the full control effect; nearly all actives have a fitted effect of over 45% in size; luciferase light after 4 h
SARS PLpro yeast – blocks SARS-CoV papain-like protease in a yeast assay | S. cerevisiae expressing SARS-CoV PLpro, growth rescue; control for the full effect not named in the record | Potency, µM (doses to about 32.9 µM), inactives show at the highest dose activity, positive = growth rescue | hit rate 0.19% among 330,000 | AID 485353; further: 0% is about no effect; nearly all actives have a fitted effect of over 55% in size; growth read by luminescence after 48 h
Cruzain inh noDet – inhibitors of Trypanosoma cruzi cruzain without detergent; purified cruzain, Z-FR-AMC fluorescence, no detergent; Potency, µM, inactives show max response, negative = inhibition, most hits filed as inhibitors; P25779; hit rate 2.3% among 200,000; active means well fitted curve in the direction sought with a large enough effect; inconclusive means small, poorly fitted or top-dose-only effect, or another doubt; inactive means no such curve, though single readings can be large; an effect the other way counts as inactive or inconclusive;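 further: plate controls were enzyme without inhibitor for no effect and buffer without enzyme for full effect; nearly all actives have a fitted effect of over 40% in size; top concentration of the series not given in the record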
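Purified cruzain at 1.5 nM, pre-incubated 15 min with compound at room temperature in 100 mM sodium acetate pH 5.5, 5 mM DTT, 0.00005% Triton X-100. Reaction started with 2 uM Z-FR-AMC; AMC fluorescence increase over 60 s gives rate.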
Lassa entry inh – Lassa virus entry inhibition. hit rate 1.2% among 300,000. Potency, µM (highest dose often 37.9 µM), inactives show at the highest dose activity change, negative = inhibition, usual class: inhibitors. Lassa virus pseudotype entry inhibition, cell reporter; control for the full effect not named in the record. AID 540256; active means well fitted inhibition curve with a large enough effect; inconclusive means small, poorly fitted or top-dose-only effect, or effect the other way; inactive means flat fitted curve, though single readings scatter; tested in HEK293 cells; further: on the % scale 0 is the no-effect control and ±100 the full control effect; nearly all actives have a fitted effect of over 50% in size; luciferase read-out
* = called active by the depositor; & = joins results of further samples; [ ] = remark or other dose. Unless noted, the call rests on the fitted dose curve; in most records, active means well fitted rising curve with a large enough effect; inconclusive means small, poorly fitted or top-dose-only effect; inactive means no such curve, though single readings can be large or run the other way. Potency means the concentration at half of the fitted maximal effect.

Screening COCCNS(=O)(=O)c1ccc(C)c(C)c1C returned NS1 inh 3%, Marburg entry inh 2%[46.1 µM], RE007 growth inh 1%, 2A StopGo 76%[activator], SARS PLpro yeast 1% and Lassa entry inh 4%.
For COc1ccc(NC(=O)c2oc3ccccc3c2NC(=O)C23CC4CC(CC(C4)C2)C3)cc1 the results were Cruzain Triton -4.4%, Marburg entry inh inconclusive, 2A StopGo -11%, Cruzain inh noDet 0% and Lassa entry inh 2%[46.1 µM].
Screening COc1cccc(CNC(=O)C2CCCN(S(=O)(=O)c3cccc4nonc34)C2)c1 (stereo not given) returned Cruzain Triton -13%, NS1 inh 7%, Marburg entry inh -1%, RE007 growth inh 17%, SARS PLpro yeast 0%, Cruzain inh noDet -15% and Lassa entry inh 1%.
CC(=O)Nc1nc(S(=O)(=O)c2ccc(C)cc2)c(Cl)s1 was read as Cruzain Triton -5.2%, NS1 inh 2%, Marburg entry inh 2%, RE007 growth inh 119%, 2A StopGo -22%, SARS PLpro yeast 5%, Cruzain inh noDet -4% and Lassa entry inh -14%.
Screening O=C(O)c1ccc2c(c1)NC(=O)C(N1CCCC1)S2 (stereo not given) returned Cruzain Triton 2.0%, NS1 inh -5%, Marburg entry inh 2%, RE007 growth inh 2%, 2A StopGo 13%, SARS PLpro yeast 1%, Cruzain inh noDet 3% and Lassa entry inh -3%.
For N#Cc1c(-c2ccccc2)nc(SCC(=O)Nc2ccccc2)[nH]c1=O the results were Cruzain Triton -10%, NS1 inh -4%, Marburg entry inh -3%, 2A StopGo -1%, SARS PLpro yeast -32%, Cruzain inh noDet 11% and Lassa entry inh 0%.
For O/N=C/C1=C(Cl)c2ccccc2CC1 the results were NS1 inh -9%, Marburg entry inh -23%[14.2 µM], RE007 growth inh 6%, 2A StopGo -2%, SARS PLpro yeast 0% and Lassa entry inh inconclusive.
COc1ccc(-c2nc(Cn3c(=O)cc(-c4ccccc4)c4c(C)nn(C)c43)c(C)o2)cc1OC was read as Cruzain Triton -1.8%, 2A StopGo -14%, Cruzain inh noDet 7% and Lassa entry inh -1%[46.1 µM].
Screening CC(=O)Nc1ccc(NC(=O)C(C)Oc2ccccc2F)cc1 (stereo not given) returned Cruzain Triton -0.1%, NS1 inh -2%, Marburg entry inh 6%, RE007 growth inh 12%, 2A StopGo 26%, SARS PLpro yeast -2%, Cruzain inh noDet 5% and Lassa entry inh -1%.
`Cc1cccc(NS(=O)(=O)c2cccc(C(=O)N3CC(C)OC(C)C3)c2)c1` (stereo not given) gave Marburg entry inh 0%, RE007 growth inh -11%, 2A StopGo 20%, SARS PLpro yeast 2% and Lassa entry inh 14%.
For COC(=O)N/N=C/c1ccc([N+](=O)[O-])s1 the results were Cruzain Triton -7.1%, NS1 inh -61%, Marburg entry inh inconclusive, 2A StopGo -11%, SARS PLpro yeast -38%, Cruzain inh noDet -9% and Lassa entry inh inconclusive.
Screening CCOc1ccccc1Oc1cn[nH]c1-c1ccc(OCC(=O)NN)cc1O returned NS1 inh inconclusive, Marburg entry inh inconclusive, RE007 growth inh 20%, 2A StopGo inconclusive, SARS PLpro yeast 6% and Lassa entry inh -24%.
For CCOc1ccc(NC(=O)Cn2nnc(-c3ccccc3NC(=O)c3cccs3)n2)cc1 the results were Cruzain Triton 0.0%, NS1 inh -8%, Marburg entry inh -1%[46.1 µM], RE007 growth inh -4%, 2A StopGo -26%, SARS PLpro yeast 4%, Cruzain inh noDet inconclusive and Lassa entry inh inconclusive.
For COc1ccc(C(=O)Nc2nc3n(n2)C(c2ccccc2)C=C(c2ccccc2)N3)cc1 (stereo not given) the results were Cruzain Triton -2.5%, 2A StopGo -31%, Cruzain inh noDet -3% and Lassa entry inh inconclusive.
COc1ccc(CCN2CC(C(=O)N(C)CCn3nc(C)cc3C)CCC2=O)cc1 (stereo not given) was read as NS1 inh -4%, RE007 growth inh 12%, 2A StopGo 1% and SARS PLpro yeast -1%.

In the list so far, these have an NH in an aromatic ring:
For N#Cc1c(-c2ccccc2)nc(SCC(=O)Nc2ccccc2)[nH]c1=O the results were Cruzain Triton -10%, NS1 inh -4%, Marburg entry inh -3%, 2A StopGo -1%, SARS PLpro yeast -32%, Cruzain inh noDet 11% and Lassa entry inh 0%.
Screening CCOc1ccccc1Oc1cn[nH]c1-c1ccc(OCC(=O)NN)cc1O returned NS1 inh inconclusive, Marburg entry inh inconclusive, RE007 growth inh 20%, 2A StopGo inconclusive, SARS PLpro yeast 6% and Lassa entry inh -24%.

Next part
For O=[N+]([O-])c1ccc(N2CCCC2)nc1 the results were NS1 inh 1%, Marburg entry inh 2%[46.1 µM], RE007 growth inh inconclusive, 2A StopGo -6%, SARS PLpro yeast -1% and Lassa entry inh 21%.
Cc1onc(-c2c(F)cccc2Cl)c1C(=O)NCc1ccc(F)cc1 was read as NS1 inh -4%, RE007 growth inh -7%, 2A StopGo 70%[activator] and SARS PLpro yeast -2%.
For CCOC(=O)C1CCCN(Cc2ccccc2F)C1 (stereo not given) the results were Cruzain Triton 5.4%, NS1 inh 11%, Marburg entry inh -26%, RE007 growth inh 0%, 2A StopGo 14%, SARS PLpro yeast 7%, Cruzain inh noDet 1% and Lassa entry inh 17%[14.3 µM].
Screening COc1cc(C(=O)OCC(=O)N2CCCC2)cc(OC)c1OC returned Cruzain Triton 3.7%, NS1 inh -5%, Marburg entry inh 3%, RE007 growth inh 14%, 2A StopGo -2%, SARS PLpro yeast 0%, Cruzain inh noDet -5% and Lassa entry inh 6%.
Screening O=C(CSc1nnc(SCc2ccc(Cl)cc2)s1)N/N=C/c1ccccc1Cl returned Cruzain Triton 0.0%, NS1 inh 8%, Marburg entry inh 9%, RE007 growth inh -9%, 2A StopGo inconclusive, SARS PLpro yeast -4%, Cruzain inh noDet -13% and Lassa entry inh -8%.
`Cc1ccc(C)c(-n2nnc(C(=O)Nc3ccc(Br)cc3)c2C)c1` gave Cruzain Triton -0.4%, Marburg entry inh 10%[46.1 µM], 2A StopGo 2%, Cruzain inh noDet -8% and Lassa entry inh -4%[46.1 µM].
CN(C)S(=O)(=O)c1ccc2c(c1)N(CC(=O)N1CCN(c3ccc(F)cc3)CC1)CCS2 was read as Cruzain Triton -6.1%, 2A StopGo -28%, Cruzain inh noDet 13% and Lassa entry inh 1%[46.1 µM].
`Cc1ccc2cc(CCNC(=O)C3CCCCC3)c(=O)[nH]c2c1C` gave NS1 inh -6%, RE007 growth inh -3%, 2A StopGo -17% and SARS PLpro yeast 11%.
For CC(C)n1cc(C#N)c(N)n1 the results were Marburg entry inh 16%, RE007 growth inh 2%, 2A StopGo -16% and Lassa entry inh 10%.
For CCOc1cc(C2C(C(C)=O)=C(O)C(=O)N2CCc2c[nH]c3ccccc23)ccc1O (stereo not given) the results were NS1 inh 5%, Marburg entry inh 5%[46.1 µM], RE007 growth inh 24%, 2A StopGo -14%, SARS PLpro yeast 1% and Lassa entry inh 0%[46.1 µM].
Screening Cc1ccnc2nc(C(=O)Nc3nc(-c4ccccn4)cs3)nn12 returned NS1 inh -4%, Marburg entry inh -15%[46.1 µM], RE007 growth inh 1%, 2A StopGo 16%, SARS PLpro yeast -1% and Lassa entry inh 2%[46.1 µM].
For CC1([N+](=O)[O-])COC2(OC1)C(=O)Nc1ccccc12 (stereo not given) the results were NS1 inh 2%, Marburg entry inh -3%[46.1 µM], RE007 growth inh -10%, 2A StopGo 15%, SARS PLpro yeast 0% and Lassa entry inh -1%[46.1 µM].
Cc1cccc(C)c1OCc1cc(C(=O)N(C)Cc2cc(C3CC3)n[nH]2)no1 was read as NS1 inh -26%, Marburg entry inh -2%, RE007 growth inh 13%, 2A StopGo 5%, SARS PLpro yeast -4% and Lassa entry inh -13%.
For COC(=O)c1c(-c2c(Cl)cccc2Cl)noc1NC(=O)N(C)C the results were NS1 inh -9%, Marburg entry inh 7%&7%[46.1 µM], RE007 growth inh 1%, 2A StopGo 13%, SARS PLpro yeast 2% and Lassa entry inh 18%.
`COc1ccccc1N(C)S(=O)(=O)c1ccc(C(=O)NC2CCCCC2)cc1` gave Marburg entry inh -13%, RE007 growth inh -10%, 2A StopGo inconclusive, SARS PLpro yeast 2% and Lassa entry inh 10µM*.
Screening COc1ccc2[nH]c(=O)c(CN(Cc3ccco3)C(c3nnnn3Cc3ccccc3)C(C)C)cc2c1 (stereo not given) returned Cruzain Triton -9.5%, NS1 inh 24%, Marburg entry inh 13µM*, RE007 growth inh 11%, 2A StopGo inconclusive, SARS PLpro yeast -3%, Cruzain inh noDet -6% and Lassa entry inh inconclusive.
Screening CCOc1ccccc1NC(=O)C1CCN(c2nc(-c3ccc(OC)cc3)no2)CC1 returned NS1 inh 11%, RE007 growth inh -2%, 2A StopGo inconclusive and SARS PLpro yeast -2%.
Screening Cc1ccc(NC(=O)C2CCN(c3nc4ccccc4[nH]3)CC2)c(C)c1 returned Cruzain Triton 1.8%, 2A StopGo 7%, Cruzain inh noDet -1% and Lassa entry inh 10%[46.1 µM].
For CC(C)CCNC(=O)c1cccnc1Sc1ccccc1 the results were Cruzain Triton -1.4%, NS1 inh -2%, Marburg entry inh 11%, RE007 growth inh 46%, 2A StopGo -23%, SARS PLpro yeast 10%, Cruzain inh noDet 2% and Lassa entry inh 1%.
COc1ccc2c(c1)CCc1c(C(=O)Nc3ccc(OC)c(OC)c3)noc1-2 was read as Cruzain Triton -2.2%, NS1 inh -7%, Marburg entry inh 3%, RE007 growth inh -9%, 2A StopGo 10%, SARS PLpro yeast -4%, Cruzain inh noDet 29% and Lassa entry inh -1%.
`CCCc1nn2c(=O)cc(CSCC(=O)Nc3ccccc3)nc2s1` gave NS1 inh -5%, RE007 growth inh 5%, 2A StopGo -3% and SARS PLpro yeast 1%.
Screening COc1ccc(NC(C)=O)cc1S(=O)(=O)N1CCc2ccccc21 returned NS1 inh -1%, Marburg entry inh -7%[46.1 µM], RE007 growth inh -3%, 2A StopGo 0%, SARS PLpro yeast -1% and Lassa entry inh 0%.

Screening results (PubChem)
